# Insulin prom up: insulin promoter activators in MIN6 cells, imaging, high-content screening, mouse beta cells; z-score at 5 µM; AID 1625, 2009; 190,000 tested, 0.3% active; MIN6 insulin promoter-GFP reporter; stronger effect = higher value;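 active = z-score above 3 at 5 µM with at least 500 cells counted in the well; inconclusive = wells under 500 cells, flagged as cytotoxic or low count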
# Autophagy HCS: autophagy modulators in MEF cells, primary screen, imaging, high-content, MEF GFP-LC3; MEF GFP-LC3 puncta imaging; test concentration mostly 10 µM; calls only at 10 µM (by protocol); 190,000 tested, 0.98% active; AID 463193, 2010;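 active = percentage of spot-positive cells more than 3 SD above its plate mean, without a fluorescence outlier flag or 80% toxicity; inconclusive = no clear call, values can overlap the other calls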;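 note: spot-positive cell cutoff set from DMSO-treated cells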
# MT stabilize HCS: microtubule stabilizers in HeLa cells, primary screen, imaging, high-content imaging | % tubulin-high responders, % at 10 µM | AID 2205, 2009 | 200,000 tested, 0.83% active | HeLa tubulin immunostaining HCS, 24 h; share of cells brighter than vehicle mean+2SD;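 active = plate Z-score above 3 for both tubulin-high and condensed-nucleus cell shares, with cell loss under 80%, at 10 µM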;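 note: anti alpha tubulin signal scored within the nucleus-defined area of each cell; some results filed as inactive read as strong as hits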
# Lipid droplet: inhibitors of hepatocyte lipid droplet formation, primary screen, imaging, high-throughput imaging, BODIPY stain | inhibition, % at 6.5 µM | 240,000 tested, 0.4% active | AML12 mouse hepatocytes, oleate lipid droplets;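 active = lipid droplet intensity inhibited by at least 50%, with more than 500 cells counted; inconclusive = wells with under 300 cells, treated as cytotoxic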
#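 Test system: AML12 hepatocytes (mouse); reagent: oleate loading, 100 µM; dosing: one dose, 6.5 µM compound; incubation: overnight exposure; signal: fluorescence imaging, 20x objective, two fields per well; read-out basis: % inhibition of corrected integrated BODIPY droplet signal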
# Yfh1-depleted yeast: enhancers of respiration in Yfh1-depleted yeast, dose response, Friedreich's ataxia, plus single-dose screen (AID 1465); 220,000 tested, 0.074% active; S. cerevisiae Yfh1-off respiration, WST-1 reduction, 72 h; higher fold induction means a stronger effect; fold induction at 50 µM, or EC50 in µM where a hit was titrated;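 active = fold induction of absorbance versus untreated yeast above a set limit, then at least 30% activation at any dose in follow-up; inconclusive = repeats straddling the limit, or above it without dose testing; inactive = fold induction below the set limit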;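 note: activators that raise dye reduction in frataxin-depleted yeast; strong numbers were not always called active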
# Dynein cargo inh: inhibitors of GR-EGFP nuclear translocation, primary screen, dynein cargo transport inhibitor project, imaging, high-content, 3617.4 mouse cells | z-score, hits read low | test concentration mostly 20 µM; stimulated with dexamethasone, 1 µM; stronger effect = lower value | AID 1381, 2008 | 220,000 tested, 0.47% active;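 active = plate z-score of nuclear minus cytoplasmic receptor signal below a set negative limit, without overly bright fluorescence or cell loss, cut at about -3.5 in these data, passing the limit was not always enough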;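 note: z-score of nuclear minus cytoplasmic ring GR-EGFP intensity difference per well; some compounds called inactive have numbers as strong as hits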
#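 Buffer or medium: tetracycline-free induction medium containing charcoal-stripped FBS / Reagent: dexamethasone agonist, 1.0 µM final, for 30 min / Technique: automated 10x imaging of fixed Hoechst-stained cells / Times: induction 48 h, compound 1 h, agonist 30 min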
# WT yeast gro inh: growth inhibition of WT strain, primary screen, mitochondrial fusion inhibitor project, WT and mutant strains, chemical genetic | mitochondrial fusion phenotypic screen | inhibition, % at 10 µM | 190,000 tested, 2.1% active; in the data active = inhibition above about 58%; tested in S. cerevisiae
# WT yeast gro inh mutant strain: further read-out of WT yeast gro inh, marked with its call; inhibition, %; mitochondrial fusion phenotypic screen, mutant strain inhibition
# Dynein cargo inh cytoplasmic EGFP: second read-out of Dynein cargo inh, no call of its own (marks repeat the call); z-score; measured here: cytoplasmic GR-EGFP intensity; stronger effect = higher value
# Dynein cargo inh nuclear GR-EGFP: second read-out of Dynein cargo inh, no call of its own (marks repeat the call); z-score; measured here: nuclear GR-EGFP intensity;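 lower value marks the stronger effect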
# Dynein cargo inh cell count: second read-out of Dynein cargo inh, no call of its own (marks repeat the call); z-score; measured here: cell count per field
# Insulin prom up cell count: also measured in Insulin prom up; calls as there; cell count; measured here: cytotoxicity, nuclei count;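 total cells summed across four imaged fields per well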
# Lipid droplet cells 6.5 µM: also measured in Lipid droplet; calls as there; cell count; measured here: cell count, cytotoxicity flag;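 cells counted across two imaged fields per well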
# MT stabilize HCS Hoechst-high %: also measured in MT stabilize HCS; calls as there; % Hoechst-high responders; measured here: nuclear condensation Hoechst responders;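 share of cells brighter than vehicle mean plus two SD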
# MT stabilize HCS cytotoxicity %: second read-out of MT stabilize HCS, no call of its own (marks repeat the call); toxicity, %; measured here: cytotoxicity by cell density;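 0% = mean cell density of plate MIN control wells and 100% = no cells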
# Autophagy HCS cell loss 18 h: further read-out of Autophagy HCS, marked with its call; toxicity, %; measured here: cell loss, nuclei count;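 cell loss after 18 h compound exposure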
# * = called active by the depositor; i = inactive; ? = inconclusive; / = not tested or not shown.
SMILES,Insulin prom up,Insulin prom up cell count,Autophagy HCS,Autophagy HCS cell loss 18 h,MT stabilize HCS,MT stabilize HCS Hoechst-high %,MT stabilize HCS cytotoxicity %,Lipid droplet,Yfh1-depleted yeast,Dynein cargo inh,Dynein cargo inh cytoplasmic EGFP,Dynein cargo inh nuclear GR-EGFP,Dynein cargo inh cell count,WT yeast gro inh,WT yeast gro inh mutant strain,others
COc1ccc(N2CCN(c3oc(Cc4ccccc4)nc3C#N)CC2)cc1,-0.23,1521,i,8.6,29.2*,16.1*,21.2*,/,i,1.6,-0.143,0.371,-1.93,-1.4,1.8,
O=C(O)COc1ccc(-c2nccc(-c3cccs3)n2)cc1,0.14,1671,i,12.5,2.3,2.1,6.6,/,/,-0.323,0.0892,0.58,0.752,10.4,-11.2,
COc1cccc(C2=NOC(C(=O)NC(C)C)C2)c1 (stereo not given),-0.54,1511,i,2.7,3.9,3.5,9.3,/,i,-0.183,-0.215,0.0833,-0.162,12.8,15.5,
CN(C)S(=O)(=O)Oc1cccc(C(=O)Nc2ccc(Cl)c(Cl)c2)c1,-0.63,1023,i,6.0,0.9,1.0,2.6,/,i,0.714,-0.223,0.124,-0.00976,16.7,10.4,
CC1=C(C(N)=O)C(c2ccccc2)n2nc(-c3ccncc3)nc2N1 (stereo not given),0.15,1609,i,16.2,2.8,2.3,12.2,/,i,-1.07,-0.377,-0.203,0.334,22.4,6.4,
CC(C)Cc1nc(N2CCN(C(=O)c3ccccc3)CC2)c(C#N)c2c1CCC2,0.48,1555,i,-2.8,2.4,1.7,12.2,/,i,-0.172,-0.219,-0.717,1.18,72.6*,-10.1*,
O=C(NCc1ccco1)c1ccc(N2CCCC2=O)cc1,0.03,1638,i,0.4,4.1,0.8,8.0,/,i,-0.231,-0.438,-0.234,0.771,10.1,-16.5,
c1ccc(-c2csc(N3CCc4ccccc4C3)n2)cc1,0.94,1306,i,6.5,1.2,1.7,0.8,/,i,-1.3,-0.191,-0.611,0.588,2.0,5.3,
O=C(NC(Cc1c[nH]c2ccccc12)c1nnc2n1CCCCC2)c1ccc(Cl)cc1 (stereo not given),-0.2,1660,i,-2.7,2.3,1.2,3.7,/,i,0.441,-0.225,-0.676,-0.236,16.3,3.4,
COc1ccc(N2C(=O)CCC(C(=O)N3CCC(C(N)=O)CC3)C2c2ccc(F)cc2)cc1 (stereo not given),1.38,1689,i,7.5,4.5,1.1,1.7,/,i,-0.565,-0.0554,-0.298,1.13,-2.7,4.0,

# The last 2 compounds of the part above lead into the next.
SMILES,Insulin prom up,Insulin prom up cell count,Autophagy HCS,Autophagy HCS cell loss 18 h,MT stabilize HCS,MT stabilize HCS Hoechst-high %,MT stabilize HCS cytotoxicity %,Lipid droplet,Yfh1-depleted yeast,Dynein cargo inh,Dynein cargo inh cytoplasmic EGFP,Dynein cargo inh nuclear GR-EGFP,Dynein cargo inh cell count,WT yeast gro inh,WT yeast gro inh mutant strain,others
O=C(NC(Cc1c[nH]c2ccccc12)c1nnc2n1CCCCC2)c1ccc(Cl)cc1 (stereo not given),-0.2,1660,i,-2.7,2.3,1.2,3.7,/,i,0.441,-0.225,-0.676,-0.236,16.3,3.4,
COc1ccc(N2C(=O)CCC(C(=O)N3CCC(C(N)=O)CC3)C2c2ccc(F)cc2)cc1 (stereo not given),1.38,1689,i,7.5,4.5,1.1,1.7,/,i,-0.565,-0.0554,-0.298,1.13,-2.7,4.0,
Cc1ccc(CSc2nc3ccccc3cc2C=O)cc1,1.65,1159,i,-3.3,21.4*,20.7*,28.6*,/,i,-0.707,-0.18,-0.447,0.698,4.7,-1.7,
CC(=O)Nc1cccc(N2C(=O)CCC2=O)c1,0.73,1086,i,-7.2,2.0,2.2,8.6,/,i,-0.524,-0.221,-0.917,1.01,2.8,-6.5,
Cc1ccc(C(=O)CSc2ncnc3sc4c(c23)CCCC4)cc1,-1.08,1487,i,5.2,0.4,1.6,9.6,/,i,-0.5,-0.305,-0.136,0.682,2.6,7.0,
Cc1ccnc(SCC(=O)Nc2sc3c(c2C#N)CCC(C(C)(C)C)C3)n1 (stereo not given),-0.27,892,i,1.7,1.7,1.1,4.5,-19.8,i,0.157,-0.0498,-0.132,0.0256,4.3,9.8,Lipid droplet cells 6.5 µM=735
COc1ccccc1NC(=O)CSc1nccc(=O)[nH]1,-0.31,1285,i,-3.9,4.3,2.9,8.2,7.9,i,-0.399,-0.303,-0.851,0.77,-9.4,-1.9,Lipid droplet cells 6.5 µM=730
COc1ccc(-n2c(N)c(C(=O)NCc3ccco3)sc2=S)cc1,0.17,1453,i,-5.5,3.0,1.4,5.2,/,?,-0.182,-0.18,0.21,-0.321,39.8,39.2,
CCCS(=O)(=O)N1CCC(C(=O)NCCCOC)CC1,0.53,1514,i,-3.2,2.7,1.2,3.6,/,i,0.0915,-0.152,-0.139,0.203,9.1,3.3,
O=C(Oc1cc2oc(=O)cc(-c3ccccc3)c2cc1Cl)C1CCCCC1,0.56,1479,i,0.3,1.5,1.7,7.8,/,i,-0.0926,-0.227,-0.182,0.492,31.6,36.6,
CCCOc1ccc(N2CC(C(=O)NC(C)C)CC2=O)cc1 (stereo not given),1.31,959,i,-13.9,5.4,2.8,4.4,/,i,-0.635,-0.192,-0.0781,0.602,15.8,3.9,
CS(=O)(=O)N(CC(=O)N/N=C/c1cccs1)c1cccc(Cl)c1Cl,-0.12,1627,i,-27.9,2.3,1.2,7.8,/,i,-0.355,-0.218,0.359,1.33,-9.0,-6.8,
Brc1ccc(-c2csc(N3CCc4ccccc4C3)n2)cc1,-0.93,1452,i,-26.4,2.2,1.1,5.1,/,i,0.293,-0.226,0.501,0.827,22.7,23.2,
CCCS(=O)(=O)N1CCCC(C(=O)N2CCOCC2)C1 (stereo not given),-0.11,1692,i,-0.9,1.8,1.2,3.7,/,i,-0.102,-0.197,-0.225,0.575,12.5,11.2,
Cc1c(CCOC(=O)C2C3CC4CC(C3)CC2C4)sc[n+]1CC(=O)c1ccc(Br)cc1 (stereo not given),-2.17,872,i,2.3,3.1,1.4,4.0,/,i,0.369,-0.227,-0.695,-0.0985,16.1,7.4,

# In the list so far, these contain two or more sulfur atoms:
SMILES,Insulin prom up,Insulin prom up cell count,Autophagy HCS,Autophagy HCS cell loss 18 h,MT stabilize HCS,MT stabilize HCS Hoechst-high %,MT stabilize HCS cytotoxicity %,Lipid droplet,Yfh1-depleted yeast,Dynein cargo inh,Dynein cargo inh cytoplasmic EGFP,Dynein cargo inh nuclear GR-EGFP,Dynein cargo inh cell count,WT yeast gro inh,WT yeast gro inh mutant strain,others
Cc1ccc(C(=O)CSc2ncnc3sc4c(c23)CCCC4)cc1,-1.08,1487,i,5.2,0.4,1.6,9.6,/,i,-0.5,-0.305,-0.136,0.682,2.6,7.0,
Cc1ccnc(SCC(=O)Nc2sc3c(c2C#N)CCC(C(C)(C)C)C3)n1 (stereo not given),-0.27,892,i,1.7,1.7,1.1,4.5,-19.8,i,0.157,-0.0498,-0.132,0.0256,4.3,9.8,Lipid droplet cells 6.5 µM=735
COc1ccc(-n2c(N)c(C(=O)NCc3ccco3)sc2=S)cc1,0.17,1453,i,-5.5,3.0,1.4,5.2,/,?,-0.182,-0.18,0.21,-0.321,39.8,39.2,
CS(=O)(=O)N(CC(=O)N/N=C/c1cccs1)c1cccc(Cl)c1Cl,-0.12,1627,i,-27.9,2.3,1.2,7.8,/,i,-0.355,-0.218,0.359,1.33,-9.0,-6.8,

# Retrieved by compound from above, 2 records:
SMILES,Insulin prom up,Insulin prom up cell count,Autophagy HCS,Autophagy HCS cell loss 18 h,MT stabilize HCS,MT stabilize HCS Hoechst-high %,MT stabilize HCS cytotoxicity %,Lipid droplet,Yfh1-depleted yeast,Dynein cargo inh,Dynein cargo inh cytoplasmic EGFP,Dynein cargo inh nuclear GR-EGFP,Dynein cargo inh cell count,WT yeast gro inh,WT yeast gro inh mutant strain,others
O=C(Oc1cc2oc(=O)cc(-c3ccccc3)c2cc1Cl)C1CCCCC1,0.56,1479,i,0.3,1.5,1.7,7.8,/,i,-0.0926,-0.227,-0.182,0.492,31.6,36.6,
CCCS(=O)(=O)N1CCC(C(=O)NCCCOC)CC1,0.53,1514,i,-3.2,2.7,1.2,3.6,/,i,0.0915,-0.152,-0.139,0.203,9.1,3.3,

# These rows are one share of the data (hit frequency here may not be typical).
